# High-throughput results as filed in PubChem BioAssay.
# HSD17B inhib = HSD17B dehydrogenase inhibition; Q99714; recombinant HSD17B10, NADH fluorescence kinetic; many of its hits are not listed in these tables; Potency, µM (highest dose often 57.1 µM), without a hit: top-dose activity change, negative = inhibition, actives largely listed as inhibitors; 7.6% of 75,000 active; active = well fitted inhibition curve with a large enough effect; inconclusive = small, poorly fitted or top-dose-only effect; inactive = no such curve, though single readings can be large or run the other way;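 also: the protocol describes HADH2 (HSD17B10) and not the HSD17B4 of the title; nearly all actives have a fitted effect of over 70% in size; most hits overshoot -100% by far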
#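 Activity followed as NADH fluorescence increase (ex 360, em 450 nm) every 30 seconds for 4 min, using final 90 uM beta-hydroxybutyryl CoA and 1 mM NAD+. Recombinant His-tagged enzyme, 20 nM, pH 9.0 Tris buffer, 15 min compound preincubation.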
# Numbers without * were called inactive; u = inconclusive; & = joins results of further samples; [ ] = dose if it differs, or a comment. % is scaled to controls: 0 for no effect and ±100 for the full control effect; potency is read from the fitted curve at half-maximal effect. An excerpt; the hit share may differ from the screen's.
SMILES,HSD17B inhib
Cc1noc(/C=C/N(C)C)c1S(=O)(=O)N(C)CC(=O)NC1CCCCC1,-8%
CN(C)CCCN1c2ccccc2C(C)(C)c2ccccc21,-2%[11.4 µM]
CCOc1ccc(C(=O)Nc2nnn(CC)n2)cc1,2%
CCN(CC)CCCn1c(-c2ccccc2)nc2c(NCCOC)nc(C)nc21,32µM*
CCOC(=O)COc1nc(Nc2ccccc2C)nc(N(C)C)n1,-7%
COc1ccc(NS(=O)(=O)c2ccc(NS(=O)(=O)c3ccc(C)cc3)cc2)nn1,4%
CC[C@@H](c1ccccc1)n1c(=O)n2n(c1=O)[C@H]1[C@H](O)[C@H]3O[C@H]3C(=O)[C@H]1CC2,-3%[11.4 µM]
CC1CCCC(C)N1C(=O)CSc1nnc(-c2cccs2)o1 (stereo unspecified),-11%
C[C@]12CCC3c4ccc(O)cc4CCC3C1CCC2OC(=O)CCC1CCCC1 (stereo partly specified),0%
Cc1ccc(S(=O)(=O)N2CC3(C)CN(S(=O)(=O)c4ccc(C)cc4)CC(C)(C2)C3O)cc1 (stereo unspecified),5%
Cc1ccc(-c2nn3c(C)nnc3s2)cc1NC(=O)CSc1ccc(Cl)cc1,-1%
O=C(Cn1ncc2c(=O)oc3ccccc3c21)NC1CC1,-1%
CCOC(=O)Cc1csc(NC(=O)CSc2nc(C)cc(=O)[nH]2)n1,-23%
CCOc1ccccc1NC(=O)Cc1ccccc1OC,-7%
Cc1nc(-c2ccc(C(=O)N3CCOCC3)cc2)cs1,12%
Fc1ccc2nc(-c3ccccc3)nc(SCc3nnc(-c4ccccc4)o3)c2c1,-13%
CCn1cc(C(=O)N2CCCc3ccccc32)c2cc(OC)c(OC)cc2c1=O,9%
CC(=O)N1[C@H](C)C=C[C@]1(Cc1ccccc1)C(=O)NCCN1CCOCC1,-6%
CCOC(=O)c1ccc2nc(NC(=O)c3ccco3)sc2c1,u
COc1cc(NC(=O)c2ccc(COc3ccccc3Br)o2)cc(OC)c1OC,u
Cc1ccc2nc(SCC(=O)NC(=O)NCc3ccco3)[nH]c2c1,u
COC(=O)c1cc(Br)c(=O)n(CCN2CCOCC2)c1,3%
Cc1cc(C)n(C(=O)CCN2C(=O)c3ccccc3C2=O)n1,4%
O=C(CCS(=O)(=O)c1ccc(Br)s1)NCc1ccc2c(c1)OCO2,0%
O=C1CC(N2CCOCC2)C(=O)N1Cc1ccc(N2CCCC2=O)cc1 (stereo unspecified),-6%
CCOC(=O)N1CCN(C(=O)c2cc(C)c3c(C)nn(-c4ccccc4)c3n2)CC1,-2%
COc1ccc(Br)cc1CNC(=O)C1CCCN(S(C)(=O)=O)C1 (stereo unspecified),u
CCOC(=O)CCN1C(=O)[C@@H]2[C@H]3C(=CC[C@H]2C1=O)C(=O)[C@H]1O[C@H]1[C@H]3O,-1%[11.4 µM]
Cc1c(C(=O)N2CC(C)OC(C)C2)sc2nc(-c3ccc(F)cc3)cn12 (stereo unspecified),7%
Cc1cc(N2CCN(C(=O)c3ccco3)CC2)n2nc(-c3cccc(Cl)c3)cc2n1,10µM*
COc1ccc(COC(=O)N/N=C2/C[C@@H](O)[C@@H](O)[C@@H]3[C@@H]4C(=O)N(Cc5ccccc5)C(=O)[C@H]4CC[C@@H]23)cc1,3%[11.4 µM]
CCOC(=O)c1cnn(CCOC(=O)C(C)(C)C)c1NC(=O)C(C)(C)C,1%
CCCCSc1nsc(NC(C)=O)n1,1%
CCOC(=O)CCCn1c(C)nc(=O)c(-c2ccccc2)c1C,-2%
CSCC[C@H](NC(=O)C1CCN(S(=O)(=O)c2ccc(C)cc2)CC1)C(=O)NCc1ccco1,-12%
CCCS(=O)(=O)NCCc1cc2ccc(C)cc2[nH]c1=O,u
Cc1ccc(C)c(-n2c(Cc3cc(=O)[nH]c(=O)[nH]3)nnc2SCC(=O)NCC2CCCO2)c1 (stereo unspecified),3%
Cc1sc2ncnc(OCC(=O)NCc3cccs3)c2c1C,13%
C=C(C#N)C(=O)OCC,6%
O=C(O)CCC(=O)Nc1nnc(C(F)(F)F)s1,-1%

# Next section; it opens with the 3 that closed the last part.
SMILES,HSD17B inhib
Cc1sc2ncnc(OCC(=O)NCc3cccs3)c2c1C,13%
C=C(C#N)C(=O)OCC,6%
O=C(O)CCC(=O)Nc1nnc(C(F)(F)F)s1,-1%
CCCC(C)C1C(C#N)=C(N)Oc2cc(C)oc(=O)c21 (stereo unspecified),9%
C=CCNC(=O)C1CCN(S(=O)(=O)c2ccccc2)CC1,6%
CCOC(=O)N1CCN(Cc2nc3c(c(=O)n(C)c(=O)n3C)n2Cc2cc(C)ccc2C)CC1,9%
CC1CCCCC1NC(=O)C1CCN(S(=O)(=O)N2CCOCC2)CC1 (stereo unspecified),10%
Cc1cc(NC(=O)COC(=O)C2CCN(S(=O)(=O)c3ccc(Cl)cc3)CC2)no1,5%
C=CCN(CC=C)S(=O)(=O)c1ncn[nH]1,-6%
Cc1noc(C)c1-c1cc(NC2CC2)ncn1,u
NC(=O)c1ccc(-c2ccc(Br)cc2)o1,32µM*
CCOC(=O)N1CCN(C(=O)c2ccc(C)c(S(=O)(=O)Nc3cccc(C)c3C)c2)CC1,0%
O=S(=O)(c1cccc2nsnc12)N1CCCC1,3%
CC(=O)Nc1nc(-c2ccc(Cl)cc2)nc(C)c1C(C)=O,-5%
O=C(COC(=O)COc1ccc(Nc2ccccc2)cc1)NCc1ccco1,-18%
CCOc1ccc(C2Oc3nc(SC)nnc3-c3ccccc3N2C(C)=O)cc1OC (stereo unspecified),-5%
CSc1nnc(-c2ccccc2)n1C,11%
CCCCCCCCCCCCCCCC(=O)NC(C)C,-7%
CCn1nc(C(=O)OCC(=O)c2cc(C)n(Cc3cccs3)c2C)c2ccccc2c1=O,-21%
COc1ccc2nc(C)cc(N3CC(C)OC(C)C3)c2c1 (stereo unspecified),-8%
Cc1nc(CC(=O)N2CCN(c3cccc(C)c3C)CC2)cs1,-9%
CCOc1ccc(NC(=O)N(CCC(C)C)C(C)c2ccco2)cc1 (stereo unspecified),2%
COc1cc2c(cc1OC)C(c1cccc(OC)c1OC)CC(=O)N2 (stereo unspecified),-4%
C=CCOC(=O)C1=C(C)NC(=O)NC1c1ccc(OC(=O)c2ccco2)c(OC)c1 (stereo unspecified),7%
O=C(CSc1nnc(Cc2cccs2)n1C1CCCCC1)N1CCN(C(=O)c2ccco2)CC1,1%
COc1ccc(CNc2nc3nc(C)cc(C)n3n2)cc1OC,0%
CCOC(=O)c1c(N)sc2c1CCS(=O)(=O)C2,-12%
CCN(Cc1ccccc1)Cc1cc(OC)cc(OC)c1,4%
CCN(CC)CC(=O)N(CC(=O)Nc1c(C)cc(C)cc1C)C1CCCCC1,13%
CCCCC(=O)Nc1ccc(C(=O)N2CCN(c3ccccc3OC)CC2)cc1,1%
CCn1c(=O)[nH]c2cc(Cl)c(Cl)cc21,-3%
CCOC(=O)C1CCN(C(c2ccc(OC)c(OC)c2)c2sc3nc(C)nn3c2O)CC1 (stereo unspecified),7%
CCOC(=O)c1ccc(NC(=O)C2=C(C)Nc3nc(CCCO)nn3C2c2cccc(C)c2)cc1 (stereo unspecified),-8%
CCCC[C@@H]1C[C@H]1C(NC(=O)c1ccco1)c1ccccc1 (stereo partly specified),-9%
COc1ccccc1CNc1ccnc(-c2cccc(NS(C)(=O)=O)c2)n1,-7%
CC(=O)Oc1ccc2c(c1)CCC1C2CC[C@@]2(C)C1CC(OC(C)=O)C2OC(C)=O (stereo partly specified),5%
O=C(C1CCN(S(=O)(=O)N2CCC3(CC2)OCCO3)CC1)N1CCN(Cc2ccccc2)CC1,5%
CC1=C(C(=O)N2CCCCC2)C(c2cccs2)C2=C(CCCC2=O)N1 (stereo unspecified),32µM*
CCc1nc(SCC(=O)N2CCc3ccccc32)c2oc3ccccc3c2n1,-2%
CC12CCC(C(=O)NCc3ccccc3)(OC1=O)C2(C)C (stereo unspecified),1%
O=C(O)CCN=C1CCCc2ccccc2N1,3%
COc1ccc(C(=O)COC(=O)c2ccc(OC)c(OC)c2)cc1OC,0%
Cc1ccc2c(c1C)NC(=O)C2(O)CC(=O)c1ccc2c(c1)OCO2 (stereo unspecified),44%[activator]
Cc1nnc(SCc2ccccc2Cl)n1CC1CCCO1 (stereo unspecified),3%
COC(=O)CSc1nnc(CNC(=O)c2cccs2)n1-c1cc(OC)ccc1OC,-2%
COc1ccc(CCNC(=O)C2CCCN2C(=O)NC2CCCCC2)cc1OC (stereo unspecified),2%
O=C(CSc1nc2c(c(=O)[nH]1)CCCC2)Nc1ccc(Cl)cc1F,3%
COCCCNS(=O)(=O)c1ccc2c(c1)CCN2C(C)=O,7%
CCOC(=O)c1c(C)[nH]c(C=Nc2ccccc2)c1O,-11%
COc1ccc(Cc2nnc(SCC(=O)c3ccc(OC)cc3)o2)cc1,8%
Cc1nnc(SC(C)C(=O)Nc2ccc(S(=O)(=O)N3CCCCCC3)cc2)s1 (stereo unspecified),-10%
CC(=O)O[C@](C)(CCC=C(C)C)C1CC=C(C)CC1 (stereo partly specified),3%
O=C(CSc1nc(-c2ccccc2)cs1)Nc1nccs1,-2%
CC1=C2C(CCS2(=O)=O)CC2(C1)C(=O)OC(C)(C)OC2=O (stereo unspecified),-19%
CCN(Cc1ccncc1)C(=O)c1cccc(S(=O)(=O)N2CCOCC2)c1,-4%
COc1ccc(N2CCC(CNS(=O)(=O)c3cccc(C(F)(F)F)c3)C2)cc1 (stereo unspecified),-14%
C=CCN1C(=O)CN=C1Nc1cccc(C)c1,6%
COc1nc(Nc2ccc(OC)c(Cl)c2)nc(OC)n1,-8%
Cc1cc(Nc2ccc(Cl)cc2)n2nnnc2n1,u
O=C(OCC(=O)N1CCN(C(=O)c2ccco2)CC1)c1ccccc1OCc1ccc(Cl)cc1,1%
O=C(c1ccc(S(=O)(=O)N2CCCCC2)cc1)N1CCN=C1SCc1cccnc1,6%
CC1CCC(C(=O)O)NC1c1ccc(-c2ccco2)cc1 (stereo unspecified),2%[11.4 µM]
CCOC(=O)CNC(=O)c1c(C)nn(-c2ccccc2)c1Cl,8%

# Additional entries follow:
SMILES,HSD17B inhib
Cc1ccc(-n2c3c(cc(C(=O)NC4CCSC4=O)c2=O)C(=O)CCC3)cc1 (stereo unspecified),25µM*
CCS(=O)(=O)N1CCN(Cc2ccccc2OC)CC1,10%
Cc1cccc(N2CCN(C(=O)C3CCN(S(=O)(=O)c4cnc[nH]4)CC3)CC2)c1C,3%
CC1CN(Cc2ccc(C#N)cc2Cl)CC(C)O1 (stereo unspecified),11%
O=C(CCSCCC(=O)NCc1cccs1)NCc1cccs1,-15%
CC(=O)CCc1c(C)c2cc(C)ccc2[nH]c1=O,-18%
CCn1c(SC(=O)NC2CCCCC2)nnc1-c1cccs1,25µM*
CCc1nn2cc(-c3ccccc3)nc2s1,1%
Cc1cccc(NC(=O)CCN2CC(C)OC(C)C2)c1 (stereo unspecified),4%
CCOC(=O)c1cccc(NC(=O)CCc2nc(-c3ccc(C)cc3)no2)c1,-1%
O=C(O)C1=C/C(=C(/c2ccccc2)c2cc(C(=O)O)c(O)c3ccccc23)c2ccccc2C1=O,-25%&-2%[11.4 µM]
C[C@@H](C(=O)Nc1ccc2ccccc2c1)[C@H]1C[C@]1(C)[C@H](NC(=O)Oc1ccc(F)cc1)c1ccccc1,9%
CCC1=C2CC[C@H]3C(=O)NC(=O)[C@H]3[C@H]2[C@@]2(Cc3ccccc3)C(=NCC(=O)OC)OC(=O)N2C1=O,-7%
COc1ccc(NC(=O)CCS(=O)(=O)c2ccc(OC)cc2)cc1,-1%
CCC1=C(OC(=O)N(CC)CC)N2C(=O)OC(=NCC(=O)OC)[C@]2(Cc2ccccc2)[C@H]2C1=CC[C@H]1C(=O)N(CC(=O)OC)C(=O)[C@H]12,-13%
CCOC(=O)c1ccc(Nc2cc(C)nc(-c3ccccc3O)n2)cc1,u
Cc1nnc(NC(=O)CSc2nnc(-c3ccoc3C)n2CC(C)C)s1,1%
Cc1cc(C)n(-c2ccc(N3CCOCC3)nn2)n1,-3%
CCn1c(=O)cc(OCC(=O)NC2CCCCC2)c2ccccc21,-4%
CCCCSc1nnc(C)c(=O)[nH]1,5%
O=C(Oc1ccc(Cl)cc1N1C(=O)CCC1=O)c1ccco1,3%
CCCCCCCCCCCCC[N+](C)(C)Cc1ccccc1,2%
C=C[C@H](N)CCC(=O)O,-5%

# Structural class: the compounds so far with a Cl atom (13)
SMILES,HSD17B inhib
Cc1ccc(-c2nn3c(C)nnc3s2)cc1NC(=O)CSc1ccc(Cl)cc1,-1%
Cc1cc(N2CCN(C(=O)c3ccco3)CC2)n2nc(-c3cccc(Cl)c3)cc2n1,10µM*
Cc1cc(NC(=O)COC(=O)C2CCN(S(=O)(=O)c3ccc(Cl)cc3)CC2)no1,5%
CC(=O)Nc1nc(-c2ccc(Cl)cc2)nc(C)c1C(C)=O,-5%
CCn1c(=O)[nH]c2cc(Cl)c(Cl)cc21,-3%
Cc1nnc(SCc2ccccc2Cl)n1CC1CCCO1 (stereo unspecified),3%
O=C(CSc1nc2c(c(=O)[nH]1)CCCC2)Nc1ccc(Cl)cc1F,3%
COc1nc(Nc2ccc(OC)c(Cl)c2)nc(OC)n1,-8%
Cc1cc(Nc2ccc(Cl)cc2)n2nnnc2n1,u
O=C(OCC(=O)N1CCN(C(=O)c2ccco2)CC1)c1ccccc1OCc1ccc(Cl)cc1,1%
CCOC(=O)CNC(=O)c1c(C)nn(-c2ccccc2)c1Cl,8%
CC1CN(Cc2ccc(C#N)cc2Cl)CC(C)O1 (stereo unspecified),11%
O=C(Oc1ccc(Cl)cc1N1C(=O)CCC1=O)c1ccco1,3%
